Screens as filed in PubChem BioAssay.
Sa ugtP lethal = growth inhibition of S. aureus ugtP deletion strain. AID 1259309. S. aureus RN4220 ugtP deletion, OD600 growth, 16 h; some inactives read as strong as hits. hit rate 0.54% among 330,000. growth inhibition, % (test concentration not listed);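 active means z-score under -3 and OD600 up to 0.15 on both plates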;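 further: plate controls were untreated wells for no effect and antibiotic for full effect; wells of about 80 µL received 100 nL stock; the first replicate is given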
Sa RN4220 lethal = kills Staphylococcus aureus RN4220; S. aureus RN4220 growth, OD600, 16 h; inhibition, % (no concentration beside the values); hit rate 0.33% among 330,000; AID 1259311;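 active means z-score of -3 or lower and OD600 up to 0.18 on both plates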;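 further: plate controls were untreated cells for no effect and reference antibiotic for full effect; stock transfer was 100 nL into about 80 µL; one replicate is shown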
PrP UTR inh = inhibition of PrP 5' UTR reporter expression; cell-based PrP 5' UTR mRNA reporter, plate reader; inhibition, % (concentration not given with the values); hit rate 0.35% among 340,000; AID 488862;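 active means every replicate at 50% or more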;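 further: 0 = median of the neutral control wells; tested in H4 reporter cells; numbers are from one replicate; inactives centre near -14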
Mtb hypoxia inh = reduces hypoxia-regulated biosensor signal in M. tuberculosis; hit rate 0.1% among 300,000; AID 1159583; M. tuberculosis hypoxia-regulated fluorescent reporter, fluorescence; fluorescence inhibition, % (concentration not given with the values);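 active means 35 to 45% if threefold the growth effect, above 45% if 1.5-fold the growth effect; inactive means the rest, general growth blockers included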;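 further: wells of about 50 µL received 100 nL stock; 0% = vehicle wells and 100% = reference inhibitor wells; whole bacteria with a GFP reporter of the hypoxia response; strong numbers were not always called active; many hits fall short of the cut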
BJeLR viability = kills HRASV12-expressing BJeLR cells. BJeLR (HRASV12) viability, CellTiter-Glo ATP luminescence, 48 h; reference of the scale not given here. inhibition, % (test concentration not listed). hit rate 0.17% among 300,000;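 active means replicate mean above 50%; inconclusive means above 50% but judged a plate artefact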;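 further: 50 nL library stock added to about 25 µL; numbers are from one replicate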
Bead autofluor = flagged as autofluorescent in microsphere protease counterscreen | compound autofluorescence counterscreen, microsphere flow cytometry; active compounds read high | hit rate 3.1% among 360,000 | AID 624483 | fluorescence intensity (test concentration not listed);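 active means at least 3 SD above the mean of all compounds, about 16000 in these data; inconclusive means too few beads counted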;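 further: 100 nL of 1 mM stock went into each well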
Mtb hypoxia inh growth = recorded beside Mtb hypoxia inh, whose call it bears; growth inhibition, %; measured here: M. tuberculosis growth (absorbance);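 0% = vehicle and 100% = reference antibiotic; read after six days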
* hit, by the source's call; u = inconclusive; x = not tested or not shown.

Values in the order – Sa ugtP lethal, Sa RN4220 lethal, PrP UTR inh, Mtb hypoxia inh, Mtb hypoxia inh growth, BJeLR viability, Bead autofluor
- N#Cc1nc(COc2ccc(Cl)cc2)oc1NCc1ccc2c(c1)OCO2
  -7, -0.9, -8, x, x, -7, 4425
- COC(=O)C1=C(C(=O)OC)[C@@H]2N(C)c3ccccc3[C@@]23C[C@@H](C(=O)OC)N(C(=O)CC(C)C)C3=N1
  x, x, -6, x, x, -1, 3509
- O=c1oc2ccccc2c(O)c1[C@H]1c2ccc(O)cc2Oc2c1c(=O)oc1ccccc21
  -1, 8.2, -22, -5, 1, 2, 4662
- O=C(N/N=C\C=C\c1ccc([N+](=O)[O-])o1)c1cccs1
  x, x, -14, x, x, 2, 3894
- CC(=O)N1CCCc2cc(S(=O)(=O)N3CCCC(C(=O)NCc4ccccc4)C3)ccc21 (configuration not stated)
  3, 3.1, -6, -12, -2, 9, 6102
- CCn1c(COc2cccc3ccccc23)nnc1SCC(N)=O
  -10, 14, -27, 3, 8, -2, 9078
- O=C(Nc1ccccc1Oc1ccsc1C(=O)O)c1ccccc1
  2, 2.8, -16, 11, 3, -7, 3659
- COC(=O)c1c(C)nc(C)c(C(=O)OC)c1-c1cccs1
  2, 1.9, -9, 12, 1, -1, 4261
- O=c1c(C=NCCCO)c(-c2ccccc2)[nH]n1-c1nc2ccccc2s1
  -5, 4.3, 1, 0, 9, 0, 3877
- CC(=O)NC(Cc1c[nH]c2ccccc12)C(=O)OCC(=O)Nc1cc(C)on1 (configuration not stated)
  -3, 0.7, -15, 0, 3, -9, 3789
- CC(=O)Nc1cc2nn(-c3ccccc3)nc2cc1C
  -6, 0.9, -19, 0, -9, -1, 3449
- Cc1ccc(CCC2C3=C(CCCC3=O)OC3=C2C(=O)CCC3)cc1
  -6, 3.1, -5, 5, 10, -3, 9811
- Cc1ccc(C(=O)C(C)OC(=O)Cn2[nH]c(=O)c3ccccc3c2=O)cc1 (configuration not stated)
  8, 2.5, -16, 11, -3, 0, 5531
- CC(=NNC(=O)CCC(=O)O)c1c(-c2ccccc2)c2cc(Br)ccc2[nH]c1=O
  2, -0.3, x, 8, 12, x, x
- CCc1ccc(OCCCC(=O)Nc2ccc(N3CCOCC3)cc2)cc1
  -1, 0.8, -19, 5, 12, 3, 2380
- Clc1ccc(Cl)c(-c2ccc(/C=N/c3ncn[nH]3)o2)c1
  x, x, 2, x, x, -1, 22627*
- CC(C)CN(C(=O)COC(=O)Cn1cnc2ccccc2c1=O)C1CCS(=O)(=O)C1 (configuration not stated)
  9, 10, -44, 2, 5, -8, 6770
- CCn1c2ccccc2c2cc(NC(=O)CNC)ccc21
  4, -0.7, -48, 9, 5, -1, 4429
- CCCCC(=O)N/N=C(/C)C1=C(C)C(C)(C)OC1=O
  x, x, -18, x, x, 4, 4490
- COc1ccc(S(=O)(=O)Nc2cc3c4c(c2)CCC(=O)N4CCC3)cc1C
  2, 8.0, -16, -4, -5, 1, u
- COc1ccc(CCNS(=O)(=O)c2ccc3c(c2)NC(=O)CCS3)cc1OC
  -5, -1.4, -2, 0, 14, -2, 5574
- CC(=NNC(=O)C1CC1c1ccccc1)c1cccc([N+](=O)[O-])c1 (configuration not stated)
  -8, -9.7, x, 16, 8, x, x
- COC(=O)C1=C(c2ccc(OC(F)(F)F)cc2)CC2CCC1N2C(=O)NCCOc1ccccc1Cl (configuration not stated)
  2, -12, x, 0, 9, x, x
- O=C(Nc1cccc2cccnc12)c1ccc(Br)o1
  -11, 17, -7, 6, 2, 7, 15937
- COc1ccccc1OCC(=O)N1CCCC(Nc2ccc(C)c(C)c2)C1 (configuration not stated)
  1, 0.3, -9, 10, -14, -6, 5424
- CCc1c(C)nc2ncnn2c1N1CCCC(C(=O)Nc2cc(F)ccc2C)C1 (configuration not stated)
  -4, -3.0, -20, x, x, 9, 3646
- CC(=O)c1ccc(S(=O)(=O)N2CCN(C)CC2)cc1
  6, 2.9, -4, 7, 10, -3, 4655
- Cc1ccc(NC(=O)C2=CC=CN3CCS(=O)(=O)N=C23)cc1
  5, 6.3, 2, 10, 13, x, u
- CN(CC1CCN(CCc2cccc(C(F)(F)F)c2)CC1)C(=O)c1ccccc1
  8, -1.5, -21, 18, -2, -3, 5382
- CCOC(=O)N1CCN(C(=O)C2CCCN(S(=O)(=O)c3c(C)cc(C)cc3C)C2)CC1 (configuration not stated)
  9, 2.5, -20, -4, -5, 0, u
- COc1c(O)cccc1[C@H](O)C1CCN(CCc2ccc(F)cc2)CC1
  x, x, 4, x, x, 1, 4221
- CCN=c1sc(C(=O)Nc2ccccc2)c(C)n1CC
  5, -0.1, -23, 3, 4, 3, 4135
- O=C(CC1C(=O)NCCN1Cc1ccccc1C(F)(F)F)NC1CCC1 (configuration not stated)
  -2, -2.6, -13, -9, -10, 4, 5033
- Cn1c(=O)c2c(ncn2CC(=O)OCC(=O)NC(c2ccccc2)c2ccccc2)n(C)c1=O
  -2, 1.4, -27, 5, 3, -10, 6969
- CC(=O)Nc1nc(CCC(C)C)cc2c1c(=O)oc1ccccc12
  6, 8.0, -6, 7, 3, -5, 4180
- CCN1C(=O)[C@H]2[C@@H](c3ccc(C)cc3)N3C(=O)N(c4cccc(Br)c4)C(=O)[C@@]3(CC(C)C)[C@H]2C1=O
  x, x, -10, x, x, 9, 2879
- Clc1cccc(Cl)c1C[n+]1cccc2ccccc21
  4, 2.1, -6, 3, 0, -3, 5584
- CCN1C=CC2=C(C#N)C(N)C(C#N)(C#N)C(c3ccccc3C(F)(F)F)C2C1 (configuration not stated)
  -13, 1.7, -101, 2, 14, -4, 2878
- Cc1cccc(NC(=O)CCN2CCOCC2)c1
  -3, 0.8, 1, 3, 0, 1, 2942
- COc1ccc(S(=O)(=O)/N=C2\C=C(Nc3ccc(O)cc3)C(=O)c3ccccc32)cc1
  x, x, -118, x, x, 51*, 5677

Seven of these compounds, reformatted:
| compound | Sa ugtP lethal | Sa RN4220 lethal | PrP UTR inh | Mtb hypoxia inh | Mtb hypoxia inh growth | BJeLR viability | Bead autofluor |
| --- | --- | --- | --- | --- | --- | --- | --- |
| COc1ccc(CCNS(=O)(=O)c2ccc3c(c2)NC(=O)CCS3)cc1OC | -5 | -1.4 | -2 | 0 | 14 | -2 | 5574 |
| CC(=NNC(=O)C1CC1c1ccccc1)c1cccc([N+](=O)[O-])c1 (configuration not stated) | -8 | -9.7 | x | 16 | 8 | x | x |
| COC(=O)C1=C(c2ccc(OC(F)(F)F)cc2)CC2CCC1N2C(=O)NCCOc1ccccc1Cl (configuration not stated) | 2 | -12 | x | 0 | 9 | x | x |
| O=C(Nc1cccc2cccnc12)c1ccc(Br)o1 | -11 | 17 | -7 | 6 | 2 | 7 | 15937 |
| COc1ccccc1OCC(=O)N1CCCC(Nc2ccc(C)c(C)c2)C1 (configuration not stated) | 1 | 0.3 | -9 | 10 | -14 | -6 | 5424 |
| CCc1c(C)nc2ncnn2c1N1CCCC(C(=O)Nc2cc(F)ccc2C)C1 (configuration not stated) | -4 | -3.0 | -20 | x | x | 9 | 3646 |
| CC(=O)c1ccc(S(=O)(=O)N2CCN(C)CC2)cc1 | 6 | 2.9 | -4 | 7 | 10 | -3 | 4655 |

The list goes on:
Values in the order – Sa ugtP lethal, Sa RN4220 lethal, PrP UTR inh, Mtb hypoxia inh, Mtb hypoxia inh growth, BJeLR viability, Bead autofluor
- CCOC(=O)Nc1sc2c(c1C#N)CCC(C)C2 (configuration not stated)
  -6, 0.9, -82, x, x, 1, 2467
- Cc1ccc(N(CCC#N)C(=O)COC(=O)C2=COCCO2)cc1
  4, 3.3, -7, 5, 6, 4, u
- COc1cc(OC)cc(-c2c(-c3cccs3)c3cc(-c4ccc(OC)c(OC)c4)ccc3n2C)c1
  -10, -8.1, 0, 4, 5, x, 2927
- O=C(NCc1ccccc1Cl)C1CCC(=O)N(C2CC2)C1 (configuration not stated)
  9, 4.2, -6, -10, -11, -1, 6382
- C/C(=N\Nc1nccnc1Cl)c1ccc(Br)cc1
  x, x, 3, x, x, -7, 3942
- CC(=O)Nc1ccc(C(=O)NNC(=O)CCc2ccccc2)cc1
  1, -3.7, -8, -2, 6, 5, 23567*
- Nc1ccc2c(c1)C(=O)c1cc(Cl)c(Cl)cc1-2
  -6, -12, -14, 4, 7, x, 4071
- CC(C)NS(=O)(=O)c1ccc(CCC(=O)N2CCCCC2)cc1
  11, 5.7, -18, 7, 2, -1, 3414
- CCOc1nc(S(=O)(=O)c2ccc(C)cc2)c(Cl)s1
  2, 6.0, -19, 9, 6, 5, 9193
- [O-][n+]1onc2c1CCc1c-2nn(-c2ccccc2Cl)[n+]1[O-]
  2, 3.5, -13, 7, 5, -15, 11143
- CC1(C)CC(=O)C(C=NCCN2CCN(CC(=O)Nc3ccccc3)CC2)=C(O)C1
  6, 3.2, -18, 5, 5, -5, 2054
- CC(=O)N1CCCc2cc(S(=O)(=O)NC(C(=O)NCc3ccc(C)cc3)C(C)C)ccc21 (configuration not stated)
  -9, -4.8, -20, -7, -1, -4, 6400
- COC(=O)c1c(NC(=O)C2(C)Cc3ccccc3C(=O)O2)sc2c1CCCC2 (configuration not stated)
  11, 4.1, -14, 5, -8, 2, 8444
- CCOC(=O)c1cc2c(=O)n3ccccc3nc2n(C(C)C)c1=NC(=O)c1ccco1
  9, -7.9, -6, 1, -6, 1, 4832
- COc1cc(S(=O)(=O)NC2CCCCC2)ccc1Cl
  -4, 0.2, 12, x, x, -6, 4786
- O=C(NC1CC1)C1CC(=O)N(c2cccc(Cl)c2Cl)C1 (configuration not stated)
  -2, 0.6, 3, 7, 10, -3, 7701
- CCn1c(C)nc2c(=O)oc3ccccc3c21
  -2, 2.8, 16, 4, 5, 1, 21816*
- CC(C)c1ccc(OCC(=O)N(Cc2ccccc2)c2ccccn2)cc1
  6, -3.9, -9, -8, -14, -3, 2106
- O=C(Nc1ccc(Cl)cn1)c1ccc(Br)c(S(=O)(=O)N2CCCCC2)c1
  2, 1.9, -59, -1, 11, 2, 2220
- COc1cc2c(C(=O)NCCCN3CC(C)CC(C)C3)cn(CC(C)C)c(=O)c2cc1OC (configuration not stated)
  6, -0.8, -11, -4, -6, -15, 3925
- CC(=NNc1nc(-c2ccccc2)cs1)c1cccs1
  -5, -4.6, x, 3, -1, x, x
- CCc1nnc(NC(=O)c2cnccn2)s1
  3, 4.0, -9, x, x, -2, 4252
- Fc1cccc(Cl)c1CNCc1cccnc1
  11, 4.6, -24, -7, -3, 0, 3850
- O=C(O)c1cccc(Nc2nc(-c3ccccc3)nc3ccccc23)c1
  -8, 7.2, -12, 14, 1, 13, 4187
- CCCNC(=O)N1[C@H]2CC[C@@H]1C(C(=O)OC)=C(c1ccc(S(C)(=O)=O)cc1)C2
  x, x, -11, x, x, 6, 4129
- CCN(CC)CCNC(=O)Cn1nc(-c2ccccc2)c2ccccc2c1=O
  4, -0.8, -4, x, x, 3, 3674
- Cc1noc(C)c1COc1cccc(C(=O)OCCOc2ccc(F)cc2)c1
  11, 31, -5, 14, 10, -2, 2435
- O=C(NNc1ccc([N+](=O)[O-])cc1)c1ccco1
  -4, 1.9, 9, 2, 14, 1, 5676
- Cc1nc2c(C#N)c[nH]n2c(=O)c1CCO
  -2, 4.7, -7, 12, 7, -1, 5483
- Cc1noc(NS(=O)(=O)c2ccc(NC(=O)C(F)(F)C(F)(F)C(F)(F)F)cc2)c1C
  8, -2.9, x, x, x, -13, 4086
- O=C(CNS(=O)(=O)c1ccc(F)cc1)Nc1ccc(C(F)(F)F)cc1
  -1, 3.3, -9, 7, 8, -4, 16544*
- O=C(COC(=O)[C@@H]1CCCN1S(=O)(=O)c1ccccc1F)Nc1ccc(OC(F)F)cc1
  4, 0.1, -17, -1, 6, -8, 2391
- COc1ccc(C(CC(=O)c2ccc(C)cc2)C(C#N)C#N)cc1OC (configuration not stated)
  4, 2.6, -5, 9, 13, -2, 2434
- COC(=O)c1c(C)nn(-c2ccccc2)c1-n1cccc1
  4, -0.2, -44, 15, 4, 0, 10704
- CCOC(=O)c1cc(-c2ccccc2)sc1NC(=O)COC
  8, 1.2, -7, -6, -5, -1, 3591
- O=C(C1CCCN(S(=O)(=O)c2cccc3nsnc23)C1)N1CC=C(c2ccccc2)CC1 (configuration not stated)
  2, 2.5, -14, 6, 11, x, 4826
- COc1ccc(C)cc1NC(=O)CC(NC(C)=O)c1ccccc1 (configuration not stated)
  6, 3.2, -15, 15, 11, 6, 4235
